Bioassay records: PubChem, Broad Institute
rRNA inh HTS: inhibitors of bacterial rRNA selective over humanized ribosomes; E. coli WT GFP vs humanized-ribosome RFP mutants, fluorescence, 24 h; hits give low values; DMSO median 0, no signal -100; GFP signal change (wild-type ribosome), % (concentration not given with the values); actives 1.6% (n = 350,000); AID 720706;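 active means significant combined selectivity score with lowered wild-type GFP, culture density cut under 30%, mutant RFP and density less affected; inactive means any of these conditions unmet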; further: one replicate is shown; some compounds called inactive have numbers as strong as hits
rRNA inh HTS OD600: also measured in rRNA inh HTS; calls as there; OD600 change, %; measured here: OD600 growth;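 optical density of the mix in the first replicate; 0 = DMSO median and -100 = no signal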
rRNA inh HTS RFP: recorded beside rRNA inh HTS, whose call it bears; RFP signal change, %; measured here: RFP humanized mutant strains;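 first replicate; 0 = DMSO median and -100 = no signal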
An asterisk follows results filed as active; & = joins results of further samples. This is a subset; the hit share may differ from the screen's.

SMILES | rRNA inh HTS | rRNA inh HTS OD600 | rRNA inh HTS RFP
O=C(Nc1nccs1)[C@@H]1[C@@H](CO)[C@@H]2Cn3c(cccc3=O)[C@@H]2N1C(=O)C1CCCC1 | -2 | -4 | -3.3
COc1ccccc1-c1cn(CC[C@H]2CC[C@H](NC(=O)C3CCCC3)[C@H](CO)O2)nn1 | -4 | -11 | 0.3
O=C(C1CCCCC1)N1CC(=O)N2[C@H](CO)[C@H](c3ccc(-c4cccnc4)cc3)[C@H]2C1 | 0 | 5 | -3.3
CN1C(=O)c2cc(NC(=O)C3CCCCC3)ccc2OC[C@H]2O[C@H](CC(=O)NCC3CCCCC3)CC[C@H]21 | -2 | -2 | 2.8
O=C(Nc1ccc2c(c1)[C@H]1C[C@H](CC(=O)N3CCCCC3)O[C@@H](CO)[C@H]1O2)NC1CCCCC1 | -1 | 0 | 1.8
COc1ccc(NC(=O)N(C)C[C@H]2Oc3ccc(NS(=O)(=O)c4ccc(C)cc4)cc3C(=O)N([C@H](C)CO)C[C@@H]2C)cc1 | 3 | 4 | -1.1
CCS(=O)(=O)Nc1ccc2c(c1)C(=O)N(C)[C@@H]1CC[C@@H](CC(=O)N[C@@H]3CCN(Cc4ccccc4)C3)O[C@@H]1CO2 | 2 | 11 | -3.4
COc1ccccc1C#Cc1ccc2c(c1)[C@@H]1[C@@H](CCN1C(=O)c1cccc(F)c1)[C@H](CO)N2 | -4 | 11 | 2.4
CN1C(=O)c2cc(NC(=O)C3CCC3)ccc2OC[C@@H]2O[C@H](CC(=O)NCc3ccccc3F)CC[C@H]21 | 2 | 4 | 0.5
C[C@H](CO)N1C[C@H](C)[C@H](CN(C)C(=O)c2ccc(F)cc2)Oc2cc(C3=CCCC3)ccc2S1(=O)=O | -2 | -19 | 4.1
COC(=O)c1ccc(CN2CC(=O)N3[C@H](CO)[C@H](c4ccc(-c5cccnc5)cc4)[C@H]3C2)cc1 | 5 | 2 | 1.8
O=C(c1ccc2c(c1)OCO2)N1CC2(C1)[C@H](c1ccccc1)[C@@H](CO)N2C(=O)C1CCCC1 | -6 | -8 | 2.7
C[C@@H]1CC=CC[C@H](c2ccc(F)cc2)NC(=O)[C@H](C)N(C)C(=O)c2ccccc2O1 (mixture of isomers) | 1 | -4 | -2.4
C[C@@H]1CN([C@@H](C)CO)C(=O)c2cc(NC(=O)Nc3ccccc3)ccc2O[C@H]1CN(C)Cc1ccc(Cl)c(Cl)c1 | -2 | 3 | 1.1
Cc1noc(C)c1S(=O)(=O)Nc1cccc2c1O[C@H](CN(C)Cc1ccc(-c3ccccc3)cc1)[C@H](C)CN([C@H](C)CO)C2=O | 0 | 3 | 0.6
Cc1ccc(S(=O)(=O)Nc2ccc3c(c2)C(=O)N([C@@H](C)CO)C[C@H](C)[C@@H](CN(C)C(=O)CCC(F)(F)F)OCCCC[C@H](C)O3)cc1 | 0 | -5 | -2.0
C/C=C/c1ccc(C2[C@@H]3CN(C(=O)Nc4ccc(F)cc4)C[C@H]2N3)cc1 (stereo partly drawn) | 3&-4 | 7&5 | 1.3&2.3
Cc1ccc(-c2ccccc2[C@H]2[C@@H](C#N)N(c3ncc(-c4ccccc4)s3)[C@@H]2CO)cc1 | 3 | 9 | -0.9
CO[C@@H]1CN(C)C(=O)c2cc(NC(=O)c3cccc(F)c3)ccc2OC[C@H](C)N(C(C)=O)C[C@@H]1C | -6 | -4 | 1.2
CCCN1C[C@@H](C)[C@@H](OC)CN(C)C(=O)c2cc(NC(=O)CC)ccc2OC[C@@H]1C | 2 | 2 | -0.9

Part of the list above in order of SMILES length, descending.
SMILES | rRNA inh HTS | rRNA inh HTS OD600 | rRNA inh HTS RFP
Cc1ccc(S(=O)(=O)Nc2ccc3c(c2)C(=O)N([C@@H](C)CO)C[C@H](C)[C@@H](CN(C)C(=O)CCC(F)(F)F)OCCCC[C@H](C)O3)cc1 | 0 | -5 | -2.0
COc1ccc(NC(=O)N(C)C[C@H]2Oc3ccc(NS(=O)(=O)c4ccc(C)cc4)cc3C(=O)N([C@H](C)CO)C[C@@H]2C)cc1 | 3 | 4 | -1.1
C[C@H](CO)N1C[C@H](C)[C@H](CN(C)C(=O)c2ccc(F)cc2)Oc2cc(C3=CCCC3)ccc2S1(=O)=O | -2 | -19 | 4.1

New compounds follow
SMILES | rRNA inh HTS | rRNA inh HTS OD600 | rRNA inh HTS RFP
O=C1CN(S(=O)(=O)Cc2ccccc2)C[C@@H]2[C@@H](c3ccc(C#Cc4ccccc4)cc3)[C@@H](CO)N12 | -2 | -9 | 6.5
Cc1ccc(S(=O)(=O)N2[C@@H]3CNC[C@H]2C3c2ccc(-c3cccc(C#N)c3)cc2)cc1 (stereo partly drawn) | 0&-61 | -10&-75 | 3.4&-13
CN1c2ccc(C#Cc3cccnc3)cc2[C@@H]2[C@@H](CCN2C(=O)C2CCCC2)[C@H]1CO | -10 | -15 | 5.7
O=C(C[C@@H]1C[C@H]2c3cc(NC(=O)C4CCOCC4)ccc3O[C@H]2[C@H](CO)O1)NCC1CC1 | 3 | 6 | -1.9
C[C@H](CO)N1C[C@H](C)[C@H](CN(C)S(=O)(=O)c2ccc(F)cc2)OCCCC[C@H](C)Oc2ccc(NC(=O)C3CCCCC3)cc2C1=O | -1 | -1 | 1.8
CCCNC(=O)N1CC(=O)N2[C@H](C1)[C@@H](c1ccc(C#Cc3cccc(F)c3)cc1)[C@@H]2CO | -60 | -77 | -15
C[C@@H]1CN([C@@H](C)CO)S(=O)(=O)c2ccc(-c3cccnc3)cc2O[C@H]1CN(C)Cc1cccnc1 | -4 | -13 | 5.8
C[C@@H]1CCCCO[C@H](CN(C)C(=O)Nc2ccccc2)[C@@H](C)CN([C@@H](C)CO)C(=O)c2cc(NC(=O)c3ccncc3)ccc2O1 | -2 | 0 | 0.8
COc1ccc(NC(=O)N2CC[C@@H]3[C@H]2c2cc(-c4cccc(F)c4)ccc2N(C)[C@H]3CO)cc1 | -1 | 11 | -0.8
CC(C)C(=O)Nc1ccc2c(c1)C(=O)N(C)[C@@H]1CC[C@H](CC(=O)NC3CCCC3)O[C@@H]1CO2 | -2 | 2 | 0.7
COc1ccc(NC(=O)N(C)C[C@H]2Oc3c(NS(=O)(=O)c4ccccc4)cccc3C(=O)N([C@@H](C)CO)C[C@H]2C)cc1 | 4 | -6 | 0.5
C[C@H](CO)N1C[C@H](C)[C@@H](CN(C)C(=O)c2ccc(F)cc2)OCc2ccccc2-c2c(n(C)c3ccccc23)C1=O | -3 | -5 | 0.6
CO[C@@H]1CN(C)C(=O)c2ccc(NS(C)(=O)=O)cc2OC[C@@H](C)N(CC2CCCCC2)C[C@H]1C | -2 | -10 | 2.2
Cc1noc(C)c1NC(=O)Nc1cccc2c1O[C@@H](CN(C)S(=O)(=O)c1ccccc1)[C@H](C)CN([C@@H](C)CO)C2=O | 1 | 2 | -1.9
Cc1ccc(-c2ccc([C@H]3[C@H]4CN(C(=O)Nc5ccc(F)cc5)CC(=O)N4[C@H]3CO)cc2)cc1 | 1 | -49 | 28
Cc1cc(C(=O)Nc2ccc3c(c2)C(=O)N(C)[C@@H]2CC[C@@H](CC(=O)NCC(F)(F)F)O[C@H]2CO3)no1 | -1 | -1 | 0.0
CC(C)NC(=O)N(C)C[C@H]1OCCCC[C@H](C)Oc2ccc(NC(=O)Nc3cccc4ccccc34)cc2C(=O)N([C@H](C)CO)C[C@H]1C | 2 | -4 | -1.9
CCS(=O)(=O)Nc1ccc2c(c1)C(=O)N(C)[C@H]1CC[C@@H](CC(=O)N[C@H]3CCN(Cc4ccccc4)C3)O[C@H]1CO2 | 1 | 8 | -2.8
C[C@@H]1CN([C@@H](C)CO)C(=O)c2cc(NC(=O)C3CCCCC3)ccc2O[C@@H](C)CCCCO[C@@H]1CN(C)S(=O)(=O)c1ccc(F)cc1 | 3 | -3 | 6.8
C[C@@H](NC(=O)[C@@H]1[C@@H](CO)[C@@H]2Cn3c(ccc(C4=CCCC4)c3=O)[C@H]1N2C(=O)C1CC1)c1ccccc1 | -7 | -9 | -1.2

An excerpt from above in order of their number in rRNA inh HTS OD600, rising:
SMILES | rRNA inh HTS | rRNA inh HTS OD600 | rRNA inh HTS RFP
C[C@@H]1CN([C@@H](C)CO)S(=O)(=O)c2ccc(-c3cccnc3)cc2O[C@H]1CN(C)Cc1cccnc1 | -4 | -13 | 5.8
C[C@@H](NC(=O)[C@@H]1[C@@H](CO)[C@@H]2Cn3c(ccc(C4=CCCC4)c3=O)[C@H]1N2C(=O)C1CC1)c1ccccc1 | -7 | -9 | -1.2
C[C@H](CO)N1C[C@H](C)[C@@H](CN(C)C(=O)c2ccc(F)cc2)OCc2ccccc2-c2c(n(C)c3ccccc23)C1=O | -3 | -5 | 0.6
CC(C)NC(=O)N(C)C[C@H]1OCCCC[C@H](C)Oc2ccc(NC(=O)Nc3cccc4ccccc34)cc2C(=O)N([C@H](C)CO)C[C@H]1C | 2 | -4 | -1.9

(continued)
SMILES | rRNA inh HTS | rRNA inh HTS OD600 | rRNA inh HTS RFP
CCCC(=O)Nc1ccc2c(c1)C(=O)N(C)C[C@H](OC)[C@@H](C)CN(CC1CCCC1)[C@H](C)CO2 | -1 | -6 | 1.6
CO[C@H]1CC[C@H]2CCOc3ccc(C#N)cc3C(=O)N(C)CC3(CCCCC3)CC(=O)N(C)C[C@H]1O2 | 5 | 13 | 2.4
C[C@H](CO)N1C[C@H](C)[C@@H](CN(C)Cc2ccc(Oc3ccccc3)cc2)Oc2ncc(-c3cncnc3)cc2C1=O | -5 | -3 | -4.9
O=C(N[C@@H]1CC[C@@H](CCn2cc(C3CCCC3)nn2)O[C@H]1CO)c1cccnc1 | -4 | -7 | -3.2
CC(C)NC(=O)Nc1ccc2c(c1)C(=O)N(C)C[C@H](C)[C@H](CN(C)S(C)(=O)=O)O2 | 1 | 1 | -0.3
C[C@@H]1CCCCO[C@@H](CN(C)S(=O)(=O)c2ccc(Cl)cc2)[C@H](C)CN([C@@H](C)CO)C(=O)c2cc(NC(=O)NC3CCCCC3)ccc2O1 | -2 | -2 | -1.8
CCC(=O)N1CC(=O)N2[C@H](CO)[C@H](c3ccc(C#CCc4ccccc4)cc3)[C@@H]2C1 | 0 | 4 | -0.1
CCCNC(=O)Nc1ccc2c(c1)C(=O)N(C)C[C@@H](OC)[C@@H](C)CN(C(=O)C1CCOCC1)[C@H](C)CO2 | 1 | -1 | -0.4
Cc1ccc(S(=O)(=O)Nc2ccc3c(c2)C(=O)N([C@H](C)CO)C[C@H](C)[C@@H](CN(C)Cc2ccc(C(=O)O)cc2)OCCCC[C@@H](C)O3)cc1 | 2 | 4 | -2.6
CC(=O)Nc1ccc2c(c1)C(=O)N(C)C[C@H](C)[C@H](CN(C)C(=O)NC(C)C)O2 | 3 | 8 | -0.7
CC(C)NC(=O)N[C@H]1CC[C@@H](CCNC(=O)C2CCCC2)O[C@H]1CO | 4 | -4 | -1.2
CO[C@@H]1CN(C)C(=O)c2cc(NC(=O)Nc3ccc(Cl)cc3)ccc2OC[C@H](C)N(C(=O)Nc2c(C)noc2C)C[C@H]1C | -3 | -8 | 1.1
COc1ccc2c3c([nH]c2c1)[C@@H](CO)N(S(C)(=O)=O)CC31CCN(Cc2cccc(F)c2)CC1 | -3 | -7 | -3.0
CCCN1C[C@@H](C)[C@H](OC)CN(C)C(=O)c2cc(NC(=O)Nc3cccc(OC)c3)ccc2OC[C@@H]1C | -3 | -3 | -0.2
COc1ccc(NC(=O)N2CC(=O)N3[C@H](C2)[C@H](c2ccc(C#CCC4CCCC4)cc2)[C@@H]3CO)cc1 | 4 | 17 | 12
COc1ccc2c3c([nH]c2c1)[C@H](CO)N(C(=O)c1ccncc1)CC31CN(C(=O)CC2CC2)C1 | 0 | 4 | -6.4
COc1ccc2c3c(n(C)c2c1)[C@H](CO)N(S(=O)(=O)c1ccc(C)cc1)CC31CN(C(=O)c2ccccn2)C1 | -2 | -12 | -2.3
C[C@H]1CN([C@@H](C)CO)C(=O)c2cc(-c3cccc(F)c3)cnc2O[C@H]1CN(C)C(=O)C1CC1 | 5 | 17 | -2.7
CO[C@@H]1CN(C)C(=O)c2ccc(NS(=O)(=O)c3ccc(C)cc3)cc2OC[C@@H](C)N(C(=O)NC(C)C)C[C@H]1C | -2 | 4 | 2.0
C[C@@H]1CC=CC[C@@H](c2ccccc2)NC(=O)[C@H](Cc2ccccc2)N(C)C(=O)c2ccccc2O1 (mixture of isomers) | -5 | -39 | 5.7
C[C@@H]1CN([C@@H](C)CO)C(=O)c2cc(NC(=O)Cc3ccccc3)ccc2O[C@@H](C)CCCCO[C@@H]1CN(C)CC1CCCCC1 | 2 | -3 | -0.3
CCC(=O)N1[C@H](CNC(=O)CN2CCOCC2)[C@H](c2ccccc2)[C@@H]1CO | 5 | 15 | -2.6
CCc1csc(N2[C@H](CO)[C@H](c3ccccc3)[C@@H]2CNCCOC)n1 | 1 | 0 | 0.9
O=C(C1CCCC1)N1CC(=O)N2[C@H](C1)[C@@H](c1ccc(-c3cccnc3)cc1)[C@@H]2CO | 3 | 2 | 0.5
C[C@H]1CN([C@@H](C)CO)S(=O)(=O)c2ccc(-c3cccnc3)cc2O[C@H]1CN(C)Cc1cccnc1 | 2 | -3 | -2.6
CC(=O)N(C)C[C@H]1Oc2ccccc2CC(=O)N(C)C[C@H]1C | -1 | -9 | 0.1
C[C@@H]1CCCCO[C@H](CN(C)Cc2ccccc2)[C@@H](C)CN([C@H](C)CO)C(=O)c2cc(NS(=O)(=O)c3cn(C)cn3)ccc2O1 | 3 | 4 | -2.6
COc1ccc(NC(=O)N(C)C[C@H]2Oc3c(NC(=O)Nc4ccc(C(F)(F)F)cc4)cccc3C(=O)N([C@@H](C)CO)C[C@@H]2C)cc1 | -5 | -8 | -2.8
CCCN1[C@@H]2c3ccc(C4=CCCC4)c(=O)n3C[C@@H]2[C@@H](CO)[C@@H]1C(=O)NC1Cc2ccccc2C1 | -2 | 1 | 1.6
